Screening data from PubChem.
MgrA DNA FP = S. aureus MgrA-DNA binding modulation; inhibition, %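 (about 10 µg/mL by stock and volumes)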; fluorescence polarization; actives 0.13% (n = 84,000);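 active = above 50% in either of two replicates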;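 note: 0% = protein plus DNA without compound and 100% = DNA alone without protein; higher means less MgrA bound to DNA so lower polarization; one replicate is shown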
Sa helicase inh = blocks Staphylococcus aureus DNA helicase | AID 485395 | inhibition, %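 (tested at about 80 µM)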 | actives 0.05% (n = 120,000) | purified S. aureus helicase, fluorescence unwinding assay; about half of the hits fall short of the stated cut;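 active = both duplicates at 50% or more, or one of them with a favoured structure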;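 note: 0% = mean of negative control wells and 100% = mean of positive control wells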
Active calls of the source: *; . = not tested or not shown; & = joins results of further samples. Only part of the results is shown, so the mix of outcomes need not match the whole.

MgrA DNA FP	Sa helicase inh	smiles
-1.1	13.0	O=C(CN1C(=O)C2C3C=CC(C3)C2C1=O)OCCCc1ccccc1 (stereo not drawn)
1.5	2.0	Cc1ccc(Sc2c(-c3ccccc3)nc3sccn23)cc1
-1.6	6.0	O=C1N/C(=N/N=C/c2cccs2)SC1Cc1ccccc1 (stereo not drawn)
-0.5	21.0	CCN(C(=O)COc1ccc(Cl)cc1Cl)c1cccc(C)c1
5.5	10.0	CCC1CCC2(CC1)NNC(=S)NN2
.	5.0	CCSc1nnc(NC(=O)C(C)Sc2ccccc2)s1 (stereo not drawn)
-1.0	.	O=C(NC(c1ccccc1)C(N=Cc1ccccc1)c1ccccc1)c1ccccc1 (stereo not drawn)
2.1	17.0	NC1=NC(=O)/C(=C\c2ccccc2C(F)(F)F)S1
.	-19.0	COC(=O)c1ccc(CSc2nc(C)cc(C)n2)cc1
.	-11.0	COc1ccc(CCN2C(=O)C=CC2=O)cc1OC
.	11.0	CCCCC1(c2ccccc2)NC(=O)NC1=O (stereo not drawn)
2.8	-4.0	O=C(Nc1ccc(F)cc1)Nc1ccc2c(c1)C(=O)OC2
-1.8	-6.0	COc1ccc(N2C(=O)CC2(/C=C/c2ccccc2)C(=O)NC2CCCCC2)cc1 (stereo not drawn)
1.1	5.0	CC1=C(C(=O)OC(C)C)C23C(=O)c4ccccc4C2(O1)OC(N)=C3C#N (stereo not drawn)
.	3.0	O=C(CSc1cccc[n+]1[O-])NC(=O)C1COc2ccccc2O1 (stereo not drawn)
0.6	.	COc1ccc(-c2[nH]ncc2CN2CCC(c3ccccc3OC)CC2)cc1
-1.1	.	O=C1C2C3C=CC(C2C(=O)N1c1ccccn1)C1C2C(=O)N(c4ccccn4)C(=O)C2C31 (stereo not drawn)
.	-4.0	COc1cc(-c2c(C#N)c(N)nc3[nH]c(=S)[nH]c(=O)c23)ccc1O
.	-20.0	O=S(=O)(c1ccc(-c2nc3ccccc3s2)cc1)N1CCOCC1
-2.6	.	O=c1[nH]nc(Sc2nc(-c3cccs3)ns2)n1-c1ccc(Cl)cc1
0.3	-6.0	CCn1c(SCC(=O)N2CCc3ccccc32)nnc1C(C)C
-1.0	9.0	CSc1nc(C)cc(OCCNC(=O)Nc2ccccc2)n1
-1.4	7.0	CCOc1ccc(CC(=O)C2C(=O)CC(C)(C)CC2=O)cc1OCC
-0.8	4.0	C=CCC(NCCc1ccccc1)c1ccco1 (stereo not drawn)
2.0	.	Cc1nc(-c2ccccn2)nc(SCC(=O)c2ccc(F)cc2)c1Cl

Going on with the list:
MgrA DNA FP	Sa helicase inh	smiles
-0.4	.	Cc1nnsc1C(=O)NCc1ccc2c(c1)OCO2
.	3.0	NS(=O)(=O)c1ccc(NC(=O)c2ccc(-c3nc4ccccc4s3)s2)cc1
-1.3	16.0	COc1ccc2cc3cc(C(=O)N(C)C4CCCCC4)oc3nc2c1
.	-9.0	CC(C)(C)C(=O)Cn1cnc2ccccc2c1=O
7.8	6.0	CC1CCN(CC(=O)C(C#N)c2ccccc2)CC1 (stereo not drawn)
.	10.0	CCOC(=O)c1ccc(S(=O)(=O)n2c(=O)oc3ccccc32)cc1
1.5	12.0	COc1ccc(-c2cc(C(F)(F)F)nc(NCC3CCCO3)n2)cc1 (stereo not drawn)
1.9	5.0	CCOC(=O)COc1ccccc1/C=C1\N=C(SCC)SC1=O
.	13.0	CCCc1cc(-c2[nH]ncc2-c2ccc(C(=O)NN)o2)c(O)cc1O
2.8	8.0	COc1ccc(N2CCN(C(=O)c3cc4sccc4n3Cc3ccccc3)CC2)cc1
0.2	6.0	CCOC(=O)c1c(NC(=O)CSc2ncn(-c3ccccc3)n2)sc2c1CCCC2
.	-16.0	CC1CCN(C(=O)COC(=O)c2nccnc2N)CC1
.	3.0	COc1ccccc1Cn1c(=O)c(C)nc2cccnc21
.	-13.0	CC(C)c1nc2ccccc2n1CC(=O)N1N=C(c2ccc(Cl)cc2)CC1c1ccco1 (stereo not drawn)
.	12.0	O=c1cc(CO)oc(CN2CCC(Cc3ccccc3)CC2)c1O
0.9	9.0	N#Cc1ccccc1Sc1ccccc1C(=O)NC(Cc1ccccc1)C(N)=O (stereo not drawn)
.	6.0	O=c1[nH]c2ccccc2c(N2CCOCC2)c1N1CCOCC1
-1.6	7.0	COC(=O)c1ccc(CSc2ncccn2)o1
-2.5	-11.0	CC(Sc1nnnn1-c1ccccc1)C(=O)O (stereo not drawn)
1.0	.	N/C(=N\S(=O)(=O)c1cc(Cl)c(Oc2ccc([N+](=O)[O-])cc2Cl)c(Cl)c1)c1ccccn1
.	5.0	Cc1sc2ncnc(Nc3ccc(CN4CCOCC4)cc3)c2c1C
.	-15.0	Cc1ccc2cc(CCNC(=O)CCC3CCCC3)c(=O)[nH]c2c1
-1.4	.	FC(F)(F)c1cnc(NN2C3CSC2CS3)c(Cl)c1
6.8	25.0	CCCCC1CCC(c2ccc(C(=O)O)cc2)CC1 (stereo not drawn)
0.1	4.0	O=C(Nc1cccc(-c2nnc(-c3ccccc3)o2)c1)C1CC1

Continuation.
MgrA DNA FP	Sa helicase inh	smiles
-1.3	.	Cc1nn(C)c(Cl)c1S(=O)(=O)Nc1ccc(Br)cc1
.	0.0	CN1CCN(CCN2CCn3c2nc2ccccc23)CC1
3.3	9.0	CCc1ccccc1NC(=O)Nc1cnccn1
.	-31.0	COc1cccc(CCNC(=O)C2CCCN(c3ncnc4c3nc3n4CCCCC3)C2)c1OC (stereo not drawn)
-2.3	2.0	CC(C)CNC(=O)NC1(C(F)(F)F)Oc2ccc(Cl)cc2O1 (stereo not drawn)
-0.8	9.0	Cc1ccc(NC(=S)NCCCN2CCN(c3cc(Cl)ccc3C)CC2)c(Cl)c1
3.7	4.0	COc1ccc(C2=C/C(=C/c3ccco3)C(=O)O2)cc1
2.0	6.0	Cc1c(Cc2ccccc2)c(=O)oc2cc(OC(C)C)ccc12
5.7	3.0	COC(=O)CSc1nnc(COc2ccc(C(C)C)cc2)o1
0.9	0.0	Cc1ccoc1C(=O)NCCN
.	-12.0	Cc1ccc(N(C)C(=O)Cn2c(=O)oc3cc(S(=O)(=O)N4CC(C)CC(C)C4)ccc32)cc1 (stereo not drawn)
.	-14.0	CCOC(=O)C1CCN(Cn2nc(Nc3ccc(CC)cc3)sc2=S)CC1
-3.5	10.0	Cc1ccc2c(c1)C1CN(C)CCC1N2C(=O)Cn1nnc(-c2ccccc2C)n1 (stereo not drawn)
-2.5	0.0	CC1(C)CCCC(C)(C)N1OC(=O)c1ccc(N)cc1
0.5	.	CCN(CCS(=O)(=O)c1ccccc1)S(=O)(=O)c1ccc(Cl)cc1
1.0	-13.0	O=C(NCC1CCCO1)c1cc2c(s1)-c1ccccc1OC2 (stereo not drawn)
.	-9.0	Nn1c(SCC(=O)Nc2ccc3c(c2)OCO3)nnc1-c1ccc(Cl)cc1
.	-14.0	Cc1ccc2nc(C3CCCCC3)cc(C(=O)O)c2c1
.	-26.0	O=C1C=CC(=O)N1Nc1ccccc1
.	11.0	CC(NC(=O)CCn1c(=O)sc2ccccc21)c1ccccc1 (stereo not drawn)
-2.0	6.0	Clc1ccc2oc(-c3cccnc3)nc2c1
-2.0	-2.0	CC(C)CCNC(=O)C1CCN(S(=O)(=O)N2CCCCC2)CC1
.	-3.0	FC(F)Oc1ccc(Cl)cc1CSc1ncccn1
-2.0	-1.0	Cc1cc(=O)[nH]c(N2CCN(Cc3ccccc3)CC2)n1
4.7	-4.0&17.0	O=C(NCc1ccccc1)NC1CCCCC1

Continuation.
MgrA DNA FP	Sa helicase inh	smiles
.	-176.0	CCOC(=O)COc1ccc2cc(-c3nc4ccccc4s3)c(=O)oc2c1
-2.0	13.0	COc1ccc(C2C3(C#N)C(N)=NC(OC)(OC)C23C#N)cc1 (stereo not drawn)
1.6	.	CN(C)c1ncnc(N(C)C)c1[N+](=O)[O-]
0.0	8.0	Nc1cccc(-c2ccc(CO)o2)c1
-2.4	.	COc1ccc(OC)c(S(=O)(=O)/N=C(\Nc2cc(C(F)(F)F)cc(C(F)(F)F)c2)SC)c1
3.8	.	COC(=O)c1scc(S(C)(=O)=O)c1NC(=O)c1ccccc1Cl
-0.6	3.0	c1ccc2c(-c3csc(-c4ccncc4)n3)c[nH]c2c1
-2.7	.	CCOC(=O)C1C(c2cccnc2)C(C(=O)OCC)C(O)(C(F)(F)F)NC1(O)C(F)(F)F (stereo not drawn)
15.8	5.0	O=C1NC(=O)C(=Cc2ccc(OCc3ccc(C(=O)O)o3)cc2)C(=O)N1
-1.1	.	COc1ccc(C2=NN(C(=O)c3ccc(Br)cc3)C(c3nc4ccccc4[nH]3)C2)cc1 (stereo not drawn)
3.9	-7.0	O=C(NCc1ccccc1)Nc1ccc(Cl)cc1
-0.2	0.0	O=C(NCC1CCCO1)c1cc2ccccc2o1 (stereo not drawn)
0.6	.	CN(C(=O)CSc1ccccn1)c1c2c(nn1C)CCCC2
0.8	.	CCOC(=O)Cn1c(-c2cccnc2)nc(-c2ccccc2)c1-c1ccccc1
.	-7.0	Cc1cccc(N=C2NN=C(c3cc(C)n(C)c3C)CS2)c1C
.	-5.0	COC(=O)Cc1csc(Nc2ccc(Cl)cc2)n1
.	4.0	COc1ccc(/C=C/C(=O)Nc2sc3c(c2C(N)=O)CCCC3)cc1OC
.	-6.0	Cc1ccccc1N(C)C(=O)c1coc(=O)c2ccccc12
.	21.0	CC(C(=O)O)N1C(=O)/C(=C/c2cccc3ccccc23)SC1=S (stereo not drawn)
5.6	.	Cn1ncc(C(=O)Sc2ccc(Cl)cc2)c1-n1cccc1
.	-12.0	CC(C)C(=O)Nc1c(-c2nc(-c3ccccc3)cs2)cnn1-c1ccccc1
.	-12.0	NNC(=O)c1ccc[nH]1
.	-7.0	CCOc1ccc(NC(=O)COC(=O)CC2CCCCC2)cc1
-1.3	16.0	c1ccc(N2CCN(N=C3c4ccccc4-c4ccccc43)CC2)nc1
0.5	17.0	CCOC(=O)c1sc2nc(SCc3cccc(Cl)c3)n(Cc3cccs3)c(=O)c2c1C

Compound profiles, from the list above.
`CC1CCN(C(=O)COC(=O)c2nccnc2N)CC1` is listed as MgrA DNA FP = .; Sa helicase inh = -16.0
`COC(=O)c1ccc(CSc2nc(C)cc(C)n2)cc1` is listed as MgrA DNA FP = .; Sa helicase inh = -19.0

Next records
MgrA DNA FP	Sa helicase inh	smiles
2.8	15.0	CNC(=O)C1=CC(C)(C)NC1(C)C
.	-29.0	COc1ccc(C(CC(=O)NCc2ccccn2)N2Cc3ccccc3C2=O)cc1OC (stereo not drawn)
.	-6.0	CCn1c2ccccc2c2cc(NC(=O)CO)ccc21
-0.6	.	COc1cc2c(cc1OC)N1C(=O)c3ccccc3C1(O)OC2=O (stereo not drawn)
-1.1	6.0	CC(NC(=O)c1cnn2c(C(F)(F)F)cc(-c3cccs3)nc12)c1ccccc1 (stereo not drawn)
-0.6	.	CCOC(=O)c1ccc(NC(=O)c2ccc([N+](=O)[O-])o2)cc1
-0.1	.	CC(=O)N/C(=C/c1ccc(Br)cc1)C(=O)O
.	-34.0	COc1cccc(/C=N/N=C(N)N)c1O
0.4	8.0	CCCNCc1ccccc1
-0.1	13.0	CN(C)c1ccc(C(=NO)c2ccc(N(C)C)cc2)cc1
-6.1	1.0	CCOC(=O)c1sc2c(OC)c(Br)ccc2c1NC(C)=O
-1.5	11.0	CCOC(=O)Cn1nnc(-c2ccccc2)n1
.	-12.0	O=C1OC(c2ccco2)=N/C1=C\c1ccc(Br)cc1
-0.3	.	CC1=C(C#N)C(c2ccc(-c3cccs3)s2)C2=C(CCCC2=O)N1 (stereo not drawn)
.	7.0	O=C(O)/C=C/c1cc(F)cc2c1OCOC2
.	-5.0	Cc1ccc(NC(=O)Nc2ccc(-c3cc(Cl)ccc3Cl)o2)cc1
4.8	.	COc1ccc(COC(=O)N/C=C/c2ccco2)cc1
4.5	.	N#Cc1c(Br)cnn1Cc1ccc(Cl)cc1
.	-16.0	CCOc1cccc(Nc2ccc(-c3ccc(OC)cc3)nn2)c1
-1.5	.	CCOC(=O)c1c(C)nsc1N
.	12.0	CCN1CCC2(CC1)Oc1ccccc1C1CC(c3ccccc3)=NN12 (stereo not drawn)
-2.6	.	O=C(NC(=O)c1ccc(-c2ccc(Cl)cc2)s1)Nc1cc(C(F)(F)F)cc(C(F)(F)F)c1
.	4.0	Cc1[nH]c(SCC(=O)Nc2cccc(C#N)c2)nc1Cc1ccccc1
2.3	6.0	Cc1cc(C=C(C#N)C#N)c(C)n1-c1ccc(S(N)(=O)=O)cc1
.	-9.0	C/C(CC(C)(C)C1CCCCC1)=N\O

Grouped by structure: those above with bromine.
MgrA DNA FP	Sa helicase inh	smiles
-1.3	.	Cc1nn(C)c(Cl)c1S(=O)(=O)Nc1ccc(Br)cc1
-1.1	.	COc1ccc(C2=NN(C(=O)c3ccc(Br)cc3)C(c3nc4ccccc4[nH]3)C2)cc1 (stereo not drawn)
-0.1	.	CC(=O)N/C(=C/c1ccc(Br)cc1)C(=O)O
-6.1	1.0	CCOC(=O)c1sc2c(OC)c(Br)ccc2c1NC(C)=O
.	-12.0	O=C1OC(c2ccco2)=N/C1=C\c1ccc(Br)cc1
4.5	.	N#Cc1c(Br)cnn1Cc1ccc(Cl)cc1

(further entries)
MgrA DNA FP	Sa helicase inh	smiles
-3.8	.	O=C(O)c1cc(C(F)(F)F)ccc1F
2.6	.	O=C(c1ccc(Cl)cc1)c1cc2c(cc1Br)OCCO2
-1.1	6.0	O=C(c1ccc(F)cc1)N1CCc2ccccc2C1
-3.1	13.0	O=C(c1ccccc1)N1CCN(Cc2ccccc2)CC1
.	19.0	CCOc1nc2cnccc2n(CCN2CCOCC2)c1=O
-0.6	10.0	O=C(C1CCCO1)N(Cc1ccccc1)c1ccccc1 (stereo not drawn)
0.7	23.0	NC(=O)CN1CCN(c2cccc(C(F)(F)F)c2)CC1
0.3	9.0	CC1CCCC(C)N1CCCNC(=O)C1CCN(c2ncnc3c2sc2cccc(F)c23)CC1 (stereo not drawn)
